Source: PubChem BioAssay (Broad Institute)
MLL AF4-AF9 inh: inhibitors of human MLL-AF4/AF9 interaction; P42568; AlphaScreen, biotin-AF4 peptide binding to FLAG-AF9; 0.47% of 350,000 active; inhibition, % at 10 µM; AID 651704;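 active means every replicate reaching a set inhibition limit, whatever the replicate mean, cut at about 25% in these data; inconclusive means mean inhibition reaches that limit but some replicates miss it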;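 further: 0% = plate neutral control median and 100% = total signal loss; the record names both 10 and 1 µM as test concentration; the first replicate is given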
Target sequence (P42568 whole entry, looked up): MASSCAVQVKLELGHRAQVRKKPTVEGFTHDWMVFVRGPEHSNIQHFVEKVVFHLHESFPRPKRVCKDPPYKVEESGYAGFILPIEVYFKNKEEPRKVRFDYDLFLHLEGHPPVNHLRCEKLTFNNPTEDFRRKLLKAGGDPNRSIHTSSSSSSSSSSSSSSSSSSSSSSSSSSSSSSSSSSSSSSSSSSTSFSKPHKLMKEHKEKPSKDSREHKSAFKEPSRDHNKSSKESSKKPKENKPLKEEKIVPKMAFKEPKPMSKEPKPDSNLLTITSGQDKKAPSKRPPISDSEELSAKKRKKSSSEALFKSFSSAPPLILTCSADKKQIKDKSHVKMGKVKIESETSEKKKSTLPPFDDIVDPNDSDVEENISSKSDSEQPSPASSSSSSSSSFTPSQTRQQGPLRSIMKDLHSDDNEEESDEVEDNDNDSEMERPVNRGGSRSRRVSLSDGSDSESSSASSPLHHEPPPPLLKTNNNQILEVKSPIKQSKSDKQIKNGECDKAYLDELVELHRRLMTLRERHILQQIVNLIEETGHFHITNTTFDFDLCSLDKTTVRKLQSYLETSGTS
RanGTP-Impb inh: inhibitors of RanGTP-importin-beta interaction, primary screen, biochemical, FRET, CFP-Ran, YFP-importin-beta, homogeneous; 1.1% of 300,000 active; inhibition, % (no concentration beside the values); cell-free CFP-Ran/YFP-importin-beta FRET ratio;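 active means most replicates above 15%; inconclusive means exactly half above 15%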;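 further: 0% = DMSO wells and 100% = Ran loaded with GDP instead of GTP; wells of about 40 µL received 100 nL stock; the first replicate is given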
T cruzi inh: blocks replication of Trypanosoma cruzi | T. cruzi beta-gal in NIH3T3, luminescence, 90 h | 1.4% of 300,000 active | inhibition, % (concentration not given with the values);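 active means mean inhibition across valid replicates above about 55%, limit read from the data; inconclusive means mean below that limit but half or more replicates reach it; inactive means mean below it, under half of replicates reach it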;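 further: signal also drops with host cell toxicity which is not excluded here; 0% = plate median of DMSO wells and 100% = zero luminescence signal; higher percent means less beta-gal luminescence so fewer parasites; stock transfer was 50 nL into about 50 µL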
Calb FLC: C. albicans growth modulation with fluconazole; C. albicans CaCi-2 (fluconazole-resistant clinical isolate) + fluconazole, Alamar Blue growth, 48 h; growth inhibition, % (no concentration beside the values); 0.57% of 300,000 active;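 active means most replicates above 75%; inconclusive means exactly half above 75%; inactive means most below 75%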;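 further: all wells also contain fluconazole at 8 µg/ml as a sub-toxic cotreatment; 0% = median of DMSO wells and 100% = median of geldanamycin control wells; wells of about 8 µL received 7.5 nL stock; the first replicate is given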
Ecoli rRNA inh: inhibits bacterial ribosomal RNA function over humanized ribosomes; E. coli WT GFP vs humanized-ribosome RFP mutants, fluorescence, 24 h; active compounds read low; DMSO median 0, no signal -100; GFP signal change (wild-type ribosome), % (test concentration not listed); 1.6% of 350,000 active;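 active means significant combined selectivity score with lowered wild-type GFP, culture density cut under 30%, mutant RFP and density less affected; inactive means any of these conditions unmet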; further: one replicate is shown; some compounds called inactive have numbers as strong as hits
ALR H2O2 inh: human ALR oxidase inhibition via reduced H2O2. P55789. purified ALR, DTT oxidation, H2O2 HRP-luminol luminescence. inhibition, % (no concentration beside the values). 3.8% of 290,000 active. AID 485317;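 active means mean and each replicate at 75% or more; inconclusive means only one of the two met; inactive means neither met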;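 further: stock transfer was 7.5 nL into about 7.5 µL; 0% = neutral wells and 100% = wells with inactivated enzyme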
Target sequence (P55789 whole entry, looked up): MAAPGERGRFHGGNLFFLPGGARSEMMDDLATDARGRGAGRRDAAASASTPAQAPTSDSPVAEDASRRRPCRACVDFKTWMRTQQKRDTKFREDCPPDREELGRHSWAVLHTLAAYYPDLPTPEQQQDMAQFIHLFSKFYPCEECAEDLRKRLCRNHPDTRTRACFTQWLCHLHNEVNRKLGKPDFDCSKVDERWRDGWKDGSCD
FGF22 binding: FGF22 (human) thermal shift binding. 1.5% of 340,000 active. calls only at 9.99 µM. recombinant FGF22 thermal shift, SYPRO orange fluorescence; percent of sucrose octasulfate shift, DMSO zero;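 active means melting point raised past a set limit in the mean and every replicate; inconclusive means no clear call; three in four hits are not shown here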
Target sequence (Q9HCT0 whole entry, looked up): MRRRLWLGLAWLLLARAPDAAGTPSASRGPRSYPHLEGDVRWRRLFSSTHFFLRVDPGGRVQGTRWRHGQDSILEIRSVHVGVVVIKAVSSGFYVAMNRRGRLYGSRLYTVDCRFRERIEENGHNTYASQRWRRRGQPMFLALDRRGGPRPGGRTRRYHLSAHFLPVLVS
Beta apoptosis: beta cell apoptosis inhibition. 0.8% of 300,000 active. INS-1E cytokine-induced death, ATP luminescence, 48 h; percent of positive-control rescue, neutral wells zero. protection from apoptosis, % (no concentration beside the values). AID 435005;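 active means all replicates at 75% or more, or half of them and the mean; inconclusive means half reach 75% but not the mean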;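 further: 0% = cytokine-treated negative control wells and 100% = positive control rescue; higher means more ATP so stronger rescue from cytokine killing; wells of about 40 µL received 100 nL stock; the first replicate is given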
Ecoli rRNA inh OD600: recorded beside Ecoli rRNA inh, whose call it bears; OD600 change, %; measured here: OD600 growth;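 optical density of the mix in the first replicate; 0 = DMSO median and -100 = no signal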
Ecoli rRNA inh RFP: further read-out of Ecoli rRNA inh, marked with its call; RFP signal change, %; measured here: RFP humanized mutant strains;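 first replicate; 0 = DMSO median and -100 = no signal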
* hit, by the source's call; i = inactive; ? = inconclusive; · = no result given.

SMILES	MLL AF4-AF9 inh	RanGTP-Impb inh	T cruzi inh	Calb FLC	Ecoli rRNA inh	Ecoli rRNA inh OD600	Ecoli rRNA inh RFP	ALR H2O2 inh	FGF22 binding	Beta apoptosis
CCC(Sc1nc(=O)cc(N)n1CCc1ccccc1)C(=O)Nc1ccccc1C#N (stereo not given)	·	?	2	-3	·	·	·	0	·	-4
CCOc1ccc(-c2nc3scc(-c4cccs4)c3c(=O)[nH]2)cc1	-15	?	-8	10	24	2	0.1	-4	i	·
CC(C)Sc1nc(N2CCOCC2)c2c3c(sc2n1)COC(C)(C)C3	·	23*	22	36	·	·	·	66	·	2
Cc1cc(C(=O)CSc2nnnn2C)c(C)n1C1CC1	3.6	3.2	-2	28	22	20	7.1	24	i	-8
Cc1cc(C(=O)c2cnc(/N=C/N(C)C)s2)c(F)cc1Cl	-1.5	0.3	8	19	-4	10	0.4	·	i	-2
Cc1[nH]c2ccccc2c1C(=O)CN1C(=O)NC2(CC(C)CC(C)(C)C2)C1=O (stereo not given)	·	3.5	22	-35	·	·	·	-6	·	20
O=C(CCOc1ccccc1)Nc1ccnn1C1CCN(Cc2ccc(F)cc2)CC1	2.3	-0.6	27	-3	1	3	1.5	0	i	-3
COCCn1nnnc1C(c1cccc(OC)c1OC)N1CCN(C(=O)c2ccco2)CC1 (stereo not given)	-6.1	-2.1	-18	19	8	9	-1.6	-1	i	2
CC(C)Cn1c(=O)c(C(=O)Nc2cnccn2)c(O)c2ccccc21	·	2.3	-3	-1	·	·	·	11	·	3
NS(=O)(=O)c1cc(C(=O)OCC(=O)NC2CC2)ccc1Cl	·	3.3	-1	9	·	·	·	-5	·	-10
CS/C(=C(/C#N)S(=O)(=O)c1ccc(Cl)cc1)N1CCOCC1	0.8	0.2	·	-21	4	-6	2.8	-3	i	-4
O=C(Nc1cccc2ncccc12)c1cccc(F)c1	0.6	5.4	10	-6	10	7	-3.0	-12	i	-15
COc1ccc(CC(=O)NCC(=O)Nc2ccccc2Br)cc1	-0.7	-5.7	-1	-2	1	17	0.1	-4	i	1
CC(=O)c1ccc(NC(=O)C2CCCN2S(=O)(=O)c2cccc3cccnc23)cc1 (stereo not given)	2.8	-0.8	11	-2	2	11	2.6	-29	i	·
CCOC1(OCC)N=C(N)C2(C#N)C(c3cccc(C)c3)C12C#N (stereo not given)	·	?	-8	1	·	·	·	0	·	-3
Cc1ccc(Cn2c(SCC(=O)N3CC(=O)Nc4ccccc43)nc3ccccc3c2=O)cc1	-1.9	3.8	25	7	-9	-2	5.4	0	i	-2
CCCCN(C(=O)CSc1nc(CCC)cc(=O)[nH]1)c1c(N)n(Cc2ccccc2)c(=O)[nH]c1=O	4.2	·	·	·	0	8	2.8	·	·	-1
CN1CCOCCOCCOCCN(C)C1=S	-1.9	4.7	-8	-3	18	8	1.3	-1	i	-2
CCN(c1ccccc1)S(=O)(=O)c1ccc(C(=O)N(C)Cc2cccs2)cc1	-2.0	·	·	·	-25	-40	-3.1	·	i	0
O=C(CCN1C(=O)S/C(=C\c2ccccc2)C1=O)NC1CCS(=O)(=O)C1 (stereo not given)	-8.5	3.0	-11	-6	-2	-4	-3.1	1	i	-3
O=C(NC1CCCCC1)C(c1cccs1)N(CCCN1CCOCC1)C(=O)c1ccc(-c2ccccc2)[nH]1 (stereo not given)	31*	2.4	-5	-5	-34	-65	29	-12	i	0
Cc1cc(C)cc(C(=O)N2CCC(CCC(=O)NC3CC3)CC2)c1	-2.8	0.7	2	4	12	7	-2.7	-9	i	-2
CCN(CC)C(=O)c1cc2cc([N+](=O)[O-])ccc2s1	·	-1.1	3	-10	·	·	·	-11	·	-3
Cc1ccnc(NC(=O)c2cccc(OC(F)F)c2)n1	-0.3	1.3	-4	-2	2	10	-3.7	·	i	-13
CCN(C#N)c1nc(NC(C)C)nc(NC(C)C)n1	5.5	?	-19	-4	·	·	·	0	i	-3
COc1ccccc1N1CCN(CCC(=O)Nc2ccc3c(c2)OCO3)CC1	·	0.4	5	-26	·	·	·	35	·	2
Cn1c(SCc2ccccc2)nnc1-c1cccs1	·	1.8	-3	-3	·	·	·	-8	·	9
O=C(c1ccc(COc2ccccc2Br)o1)N1N=C(C(F)F)CC1(O)C(F)F (stereo not given)	·	-3.3	14	10	·	·	·	·	·	5
CCOC(=O)N1CCN(C(=O)CSc2nc(C)nc3c2c(=O)n(C)c(=O)n3C)CC1	1.0	3.7	0	-6	16	14	0.2	1	i	5
CN(C)S(=O)(=O)c1cccc(-c2nnc(SCCNCCO)n2-c2ccc(F)cc2)c1	2.3	-1.6	-4	-1	10	-1	-0.3	1	i	-10
CC(C)(C)Nc1cccccc1=O	·	2.4	-1	-3	·	·	·	-9	·	-11
COc1cc(/C=N/NC(=O)c2cc(-c3cccs3)nc3ccccc23)ccc1O	-1.8	3.2	-19	4	-9	-3	0.0	25	i	4
Cc1ccc2nc(-c3ccc(NC(=O)CSCC(=O)O)cc3)sc2c1	-18	-0.8	-4	-3	-36	-34	-17	·	i	-3
CCOc1ccccc1NC(=O)NCc1ccccn1	0.4	0.2	-7	3	11	-1	-0.4	-9	i	-7
COc1ccc(S(=O)(=O)N2CCC(O)(c3ccc(Cl)cc3)CC2)cc1OC	-0.8	0.5	·	10	-24*	-18*	-4.7*	15	i	18
Cc1cccc(N2CC(C(=O)O)CC2=O)c1 (stereo not given)	·	-2.4	-1	-3	·	·	·	-6	·	4
O=C(CN1CCCCCCC1)NC(=O)NC1CCCCC1	-2.2	4.6	7	-7	2	1	0.3	-2	i	1
CC(c1ccccc1)C1C(C#N)=C(N)SC(N)=C1C#N (stereo not given)	·	-1.2	6	6	·	·	·	11	·	2
COC(=O)NC(NC(=S)Nc1ccccc1OC)C(Cl)(Cl)Cl (stereo not given)	-3.6	-2.3	8	-11	-5	-1	-12	-1	i	0
Nn1c(-c2cccc(Br)c2)n[nH]c1=S	·	3.7	-1	-16	·	·	·	4	·	-2

Compounds shown so far containing bromine (3):
SMILES	MLL AF4-AF9 inh	RanGTP-Impb inh	T cruzi inh	Calb FLC	Ecoli rRNA inh	Ecoli rRNA inh OD600	Ecoli rRNA inh RFP	ALR H2O2 inh	FGF22 binding	Beta apoptosis
COc1ccc(CC(=O)NCC(=O)Nc2ccccc2Br)cc1	-0.7	-5.7	-1	-2	1	17	0.1	-4	i	1
O=C(c1ccc(COc2ccccc2Br)o1)N1N=C(C(F)F)CC1(O)C(F)F (stereo not given)	·	-3.3	14	10	·	·	·	·	·	5
Nn1c(-c2cccc(Br)c2)n[nH]c1=S	·	3.7	-1	-16	·	·	·	4	·	-2

More entries.
SMILES	MLL AF4-AF9 inh	RanGTP-Impb inh	T cruzi inh	Calb FLC	Ecoli rRNA inh	Ecoli rRNA inh OD600	Ecoli rRNA inh RFP	ALR H2O2 inh	FGF22 binding	Beta apoptosis
N/C(=N\OC(=O)CCCc1ccccc1)c1ccccc1Cl	-17	4.4	14	-3	-7	-2	-1.1	-2	i	·
CCn1c(=O)cc(SCC(=O)NCCCN2CCC(C)CC2)c2ccccc21	-1.8	1.0	15	7	8	5	2.3	-5	i	0
CCN(C(=O)COc1ccccc1)c1nnc(-c2cccnc2)s1	·	4.7	-9	3	·	·	·	-4	·	-1
CC(C)CN(CCCNC(=O)CN1N=C(c2ccc(Cl)cc2)CCC1=O)CC(C)C	-3.2	-1.8	-16	6	19	5	0.5	4	i	-12
CC(C)CC(OC(=O)c1cccs1)C(=O)NCc1ccco1 (stereo not given)	·	-5.6	-11	6	·	·	·	45	·	-7
NNC(=O)C=C1CCN(c2ncc(C(F)(F)F)cc2Cl)CC1	·	-1.4	-22	-19	·	·	·	25	·	-2
CC(=O)N1CCCC(N2CCN(c3cccc(C(F)(F)F)c3)CC2)C1 (stereo not given)	0.9	0.3	-5	-21	0	19	3.3	1	i	-4
N#CC(C#N)=Cc1c[nH]c(=O)c(C#N)c1Nc1ccccc1	-1.5	67*	-4	0	9	7	-0.6	-7	i	0
CCOC(=O)c1nnn(-c2nc(OC)nc(N(C)C)n2)c1-c1ccccc1	·	-1.1	9	2	·	·	·	-15	·	-5
CCCCOC(=O)c1ccc(NC(=S)NC(=O)c2c(Cl)cnn2CC)cc1	·	2.0	-6	6	·	·	·	-3	·	-1
Cc1cc(C)cc(OCC(=O)Nc2ccc(F)cc2)c1	·	-0.2	-3	-46	·	·	·	-6	·	2
Cc1cc(SCc2ccc(Cl)c(Cl)c2)nc(=O)[nH]1	1.1	2.4	2	2	-37	-48	-7.9	0	i	·
C=CCSc1n[nH]c(-c2ccc(OC)cc2)n1	·	?	-11	-7	·	·	·	-11	·	1
CCNC(=O)NC(=O)C(C)OC(=O)C1CCN(S(=O)(=O)c2ccccc2F)CC1 (stereo not given)	·	0.6	1	-7	·	·	·	·	·	-8
Cc1cccc(CC(=O)NC2CCN(C)CC2)c1	-5.1	?	35	26	11	5	1.7	8	i	·
CC1(NC(=O)/C=C/c2nc3ccccc3s2)CCS(=O)(=O)C1 (stereo not given)	-2.6	·	·	·	5	12	-1.1	-3	i	0
O=C(NCCc1ccccc1)c1nnc(CS(=O)(=O)c2ccccc2)o1	-23	1.9	-24	2	-6	-8	1.5	1	i	-1
Cc1cc(C(=O)N/N=C/c2ccco2)n[nH]1	-2.0	-2.4	5	-5	8	8	1.0	-8	i	-5
Cc1cc(C)c2oc(-c3ccc(C)c(NC(=S)NC(=O)c4cccs4)c3)nc2c1	·	-1.3	-7	-2	·	·	·	36	·	-3
CC(C)Cn1c(SCC(=O)N2CCN(C(=O)c3ccco3)CC2)nc2ccccc2c1=O	0.9	-1.4	20	-5	11	2	-1.2	-3	i	5
COC(=O)C(C)Sc1nc2c(c(=O)n(C)c(=O)n2C)n1CCC(C)C (stereo not given)	-9.5	?	-2	31	·	·	·	3	i	3
C=C1c2ccccc2NC(=O)N1c1ccc(OC)cc1	0.8	-1.7	-21	-21	5	5	-0.4	-23	i	-5
CCOc1ccc(N(C)S(=O)(=O)c2cnc[nH]2)cc1	-2.1	1.7	0	1	-1	0	-4.6	-10	i	-10
COc1ccc(-c2nnc(N(C)C(=O)c3cccnc3)s2)cc1	·	-3.7	1	-10	·	·	·	-3	·	6
COc1ccc(C(C(=O)NC(C)(C)C)N(C(=O)CCC(=O)Nc2cc(C)on2)c2cccc(C)c2C)cc1 (stereo not given)	2.1	3.4	9	-5	3	4	0.7	·	i	-6
C=CCNC(=S)Nc1ccc(N(C)C)cc1	17	3.8	-6	-1	3	3	-0.3	99*	i	2
Cn1c2ccccc2c2ncn(CCC3=CCCCC3)c(=O)c21	·	-3.0	12	5	-1	-1	-0.3	-9	·	-1
O=C(Nc1ccc(Br)cc1)c1cc([N+](=O)[O-])cc([N+](=O)[O-])c1	-12	3.4	71*	-5	-4	0	-3.2	-11	i	35
CCOc1ccc(NC(=O)CSc2nnc(C3CC3)n2N)cc1	5.0	-3.7	8	?	5	2	-5.1	98*	i	0

This is a subset; the hit share may differ from the screen's.
